# Screens: PubChem BioAssay, National Center for Advancing Translational Sciences (NCATS)
# gsp antag: qHTS for Antagonists of gsp, the Etiologic Mutation Responsible for Fibrous Dysplasia/McCune-Albright Syndrome: qHTS. gsp-mutant cells, cAMP HTRF, 30 min; control for the full effect not named in the record. Potency, µM (top dose mostly 76.9 µM), for the others: at the top dose activity change, negative = inhibition, usual class: inhibitors. AID 624288, 2012. hit rate 0.4% among 340,000; active = falling curve of any shape with a large fitted effect; inconclusive = falling curve, mostly with a smaller effect; inactive = flat or rising curve; cell line not stated here;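 note: intracellular cAMP measured with PDE inhibitor Ro 20-1724 present during compound exposure; potency is the fitted concentration of half-maximal effect; % is set by controls: 0 for no effect and ±100 for the full control effect; nearly all actives have a fitted effect of over 65% in size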
#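 Cells in G418 medium, seeded 16-24 h, 37C; buffer exchange to DPBS + 1 mM CaCl2, 0.5 mM MgCl2, 0.05% BSA; cpds in DMSO + […] (300 uM stock), 30 min 37C; HTRF cAMP detection.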
# PINK1 expr mod: A Quantitative High throughput Screen to Identify Chemical Modulators of PINK1 Expression | AID 624263, 2012 | Potency, µM (highest dose often 76.6 µM), for the others: top-dose activation (PINK1 increase), usual class: activators | PINK1 immunofluorescence, high-content cytometry, 24 h | hit rate 0.2% among 410,000; active = well fitted activation curve with a large enough effect; inconclusive = small, poorly fitted or top-dose-only effect; inactive = flat fitted curve, though single readings scatter; cell line not stated here;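 note: potency is the fitted concentration of half-maximal effect; % of control where 0% means no effect; nearly all actives have a fitted effect of over 65% in size; a mitochondrial uncoupler was the plate control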
#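 Fluorescence from anti-PINK1 antibody, together with nuclear and cell stains, was scanned on a laser-scanning cytometer. Before staining, stable-line cells were incubated 24 hours with compounds at 5 concentrations; primary antibody 12 h at 10 degrees C.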
# Sfp inh: qHTS Assay for Inhibitors of Bacillus subtilis Sfp phosphopantetheinyl transferase (PPTase); Biochemical Sfp PPTase activity, qHTS; 4'-phosphopantetheinyl transferase ffp (Bacillus subtilis), Q9F4F7; hit rate 3.5% among 310,000; Potency, µM, for inactives: max response, negative = inhibition, actives largely listed as inhibitors; active = well fitted inhibition curve with a large enough effect; inconclusive = small, poorly fitted or top-dose-only effect, or another doubt; inactive = no such curve, though single readings can be large or run the other way;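 note: the enzyme is Sfp with the accession as filed and its product quenches rhodamine fluorescence; potency is the fitted concentration of half-maximal effect; 0% = enzyme reaction without inhibitor and -100% = no enzyme wells; top concentration of the series not given in the record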
#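 After 15 min at room temperature with compound, 15 nM Sfp received 5 uM rhodamine-CoA plus 12.5 uM BHQ-2-ybbR (50 mM Hepes pH 7.6, 10 mM MgCl2). Rate came from the fluorescence difference over 30 min, ex 525/em 598 nm.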
# Menin MLL FP FL: qHTS Assay for Inhibitors Targeting the Menin-MLL Interaction in MLL Related Leukemias: Competition With Fluorescein Labeled MLL-derived Peptide. AID 1766, 2009. FP activity change, % at 61.4 µM. 290,000 tested, under 10 active. Fluorescence polarization, fluorescein-MLL peptide displacement from menin; inconclusive = falling polarisation curve, or a change in total fluorescence; inactive = total fluorescence flat and polarisation flat or rising; no compound was filed as active; the % refers to the polarisation; negative = inhibition;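 note: % of control where 0% means no effect; inhibitors lower the polarisation; unlabelled MLL peptide was the positive control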
# D2 agonist: Beta-Arrestin HTS for Positive Allosteric Modulators of the Human D2 Dopamine Receptor: Agonists | DiscoveRx PathHunter D2 beta-arrestin, luminescence, 90 min; 100% = 57 uM dopamine signal | activation, % (concentration not given with the values) | hit rate 0.084% among 360,000 | AID 624465, 2012; in the data active = activation above about 40%; inconclusive = about 15% to 40%; inactive = below about 15%; note: compound concentration not given in the record; the text of the record calls up to 30% inactive
# Target sequence (P14416 whole entry, looked up): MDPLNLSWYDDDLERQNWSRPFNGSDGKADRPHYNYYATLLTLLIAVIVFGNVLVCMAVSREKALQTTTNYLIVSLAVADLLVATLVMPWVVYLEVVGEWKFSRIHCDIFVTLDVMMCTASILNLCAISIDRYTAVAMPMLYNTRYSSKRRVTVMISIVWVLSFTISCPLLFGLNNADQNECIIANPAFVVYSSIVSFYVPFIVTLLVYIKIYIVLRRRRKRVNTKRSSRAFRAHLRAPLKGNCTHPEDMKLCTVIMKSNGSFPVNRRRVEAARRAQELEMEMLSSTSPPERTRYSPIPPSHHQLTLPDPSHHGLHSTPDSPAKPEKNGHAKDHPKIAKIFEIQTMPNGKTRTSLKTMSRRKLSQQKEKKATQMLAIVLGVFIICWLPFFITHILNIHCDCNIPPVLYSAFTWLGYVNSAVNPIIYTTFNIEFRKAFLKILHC
#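 DiscoveRx PathHunter D2 beta-arrestin cells (2,100/well) attached overnight, then compound-stimulated 90 min at 37 C in HBSS/10 mM HEPES/0.1% Tween-20 buffer; beta-galactosidase complementation read by luminescence after 1 h at ambient temperature. Dopamine 57 uM final (EC100) as control.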
# ClpP mod: qHTS Assay for Activators of ClpP | ATP-dependent Clp protease proteolytic subunit (Bacillus subtilis (strain 168)), P80244 | purified B. subtilis ClpP, FRET peptide cleavage, 20 min | Potency, µM (doses to about 57.5 µM), inactives show top-dose activity change, negative = active | hit rate 1.9% among 340,000 | AID 651965, 2013; active = well fitted falling curve with a large enough effect; inconclusive = small, poorly fitted or top-dose-only effect; inactive = no such curve, though single readings can be large or run the other way; note: potency is the fitted concentration of half-maximal effect; the source files actives as falling curves though it sought activators and does not explain the sign; nearly all actives have a fitted effect of over 65% in size; many hits overshoot -100%
# Target sequence (P80244 whole entry, looked up): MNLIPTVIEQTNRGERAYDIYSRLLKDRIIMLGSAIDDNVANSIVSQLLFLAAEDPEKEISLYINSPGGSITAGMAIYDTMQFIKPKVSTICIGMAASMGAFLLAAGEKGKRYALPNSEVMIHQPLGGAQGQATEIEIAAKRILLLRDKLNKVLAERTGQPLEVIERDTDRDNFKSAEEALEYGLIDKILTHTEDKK
#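 ClpP 10 microg/mL final, pH 8 Tris/KCl buffer with BSA, glycerol, Tween-20; compound pinned in; FRET-FV substrate; RT 20 min; Ex320/Em430; ΔFRET vs ADEP 5.8 microM, DMSO, no enzyme.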
# gsp ag: qHTS for Agonist of gsp, the Etiologic Mutation Responsible for Fibrous Dysplasia/McCune-Albright Syndrome: qHTS. gsp mutant cells, cAMP HTRF, 30 min; control for the full effect not named in the record. Potency, µM (series often up to 76.9 µM), inactives show at the top dose activation (cAMP increase), actives largely listed as activators. hit rate 0.13% among 340,000. AID 624287, 2012; active = well fitted activation curve with a large enough effect; inconclusive = small, poorly fitted or top-dose-only effect, or another doubt; inactive = no such curve, though single readings can be large or run the other way; cell line not stated here;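 note: phosphodiesterase inhibitor Ro 20-1724 added with compounds to block cAMP breakdown; potency is the fitted concentration of half-maximal effect; nearly all actives have a fitted effect of over 60% in size; about a fifth of the inactives were tested at one dose only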
#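 Cells in DMEM/10% FBS with G418 were pretreated with compounds in DMSO plus […] (300 uM stock) for 30 min at 37C. cAMP was measured by HTRF (cAMP-d2 plus anti-cAMP antibody-K) after 30 min at room temperature.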
# An asterisk follows results filed as active; ? = inconclusive; / = not tested or not shown; & = joins results of further samples; [ ] = another dose, or the depositor's remark.
structure	D2 agonist	Sfp inh	PINK1 expr mod	ClpP mod	Menin MLL FP FL	gsp antag	gsp ag
COc1cc(Cl)ccc1OC1(C)CCN(Cc2ccc(-c3ccccn3)cc2)C1 (stereo unspecified)	13	/	28%	2.1%	/	/	/
O=C(CSc1ccc2c(c1)OCCO2)Nc1cccnc1	-2.9	13%	-1.3%	/	0.2	-1%	-8%
Cc1nn(C)c(C(=O)N/N=C/c2cccc3ccccc23)c1Cl	-5.5	23%	?	14µM*	-0.5	-4%	16%
C(=C\c1ccccc1)/CSc1nnc(-c2cccnc2)o1	-1.7	-6%	/	-1.3%	2.9	-5%	-14%
COc1ccccc1C(=O)NC(=O)COC(=O)C1CCC1	3.9	/	2.0%	-29%	/	7%	-44%[inhibitor]
Cc1c(C(=O)N2CCCC(C)C2)sc2ncnc(N3CCCCC3C)c12 (stereo unspecified)	-1.4	79µM*	5.1%	/	0.0	-14%	?
O=C(c1ccc(S(=O)(=O)Nc2ccccc2F)cc1)N1CCN(c2ccccn2)CC1	4.4	/	0.7%	-4.7%	/	?	/
CCc1ccc(N2CCN(CCNC(=O)Nc3ccc(OC)cc3)CC2)cc1	11	8%	-1.1%	0.3%	-3.5	5%	-5%
O=C(COc1ccccc1[N+](=O)[O-])Nc1cccc(S(=O)(=O)N2CCCC2)c1	3.9	/	-0.1%	0.6%	/	-10%	-2%[15.4 µM]
Cc1cccc(-c2noc(CN(C)C(=O)c3ccco3)n2)c1	4.5	16%	0.2%	/	1.2	-2%	?
Cn1nccc1C(=O)c1ccc(Cl)cc1	0.1	3%	1.7%	-1.3%	3.4	8%	-29%
COCCCNC(=O)CN1C(=O)c2cccc3cccc1c23	-3.9	14%	0.6%	-2.8%	2.1	0%	-6%[15.4 µM]
COc1cc(SC)ccc1C(=O)Nc1ccc2c(c1)CCC2	-2.6	-17%	1.4%	/	-0.5	?	-3%[15.4 µM]
O=C(Cc1ccccc1)NN1C(=O)C2C3C=CC(C3)[C@@H]2C1=O (stereo partly specified)	2.2	14%	1.0%	-2.0%	0.3	22%	0%
COc1ccc(-c2cc(C)no2)cc1S(=O)(=O)N1CCN(c2ccccc2F)CC1	-2.5	16%	-1.7%&0.4%	-12%&-16%	-1.5	-1%	?
CCOc1ccc(NC(=O)CN2CCN(CC(=O)Nc3cccc(F)c3)CC2)cc1	-2.8	-1%	-1.0%	-1.3%	0.0	5%[15.4 µM]	7%
CCOc1ccccc1NC(=O)CCNC(=O)C1CCN(S(=O)(=O)c2ccccc2)CC1	1.1	/	3.2%	0.8%	/	/	-58%[inhibitor]
NC(=O)c1cc2n(n1)C(C(F)(F)F)CC(c1ccco1)N2 (stereo unspecified)	-4.6	8%	-3.0%	-0.3%	4.0	2%	-40%[inhibitor]
Cc1cccc(S(=O)(=O)N2CCC(CO)(Cc3ccccc3)CC2)c1	-1.3	3%	-0.2%	-1.2%	4.6	-4%	-2%[15.4 µM]
Cn1c(=O)n(CCc2ccccc2)c(=O)c2c1ncn2Cc1ccccc1	3.2	6%	24%[38.3 µM]	-0.8%	2.0	-1%	28%
Cc1cc(C)n(-c2nnc(C)n2N)n1	-0.2	9%	-1.5%	-0.2%	-3.2	13%	?
CCN(CC(=O)NCc1cccs1)C(=O)c1ccc(NS(=O)(=O)c2ccc(C(C)=O)cc2)cc1	-5.4	/	0.2%	-6.5%	/	5%	-13%
CCCCc1ccc(NC(=S)Nc2ccc(Cl)c(S(=O)(=O)N(C)C)c2)cc1	2.6	?	?	-2.7%	8.9	-8%	-7%
Cc1cccc(S(=O)(=O)N(C)C[C@@H]2OCc3cn(nn3)CCCC(=O)N([C@H](C)CO)C[C@H]2C)c1	-3.3	/	1.5%	-1.5%	/	/	?
C[C@H](CO)N1C[C@H](C)[C@H](CN(C)Cc2ccccc2)Oc2c(NC(=O)Nc3ccc(F)cc3)cccc2C1=O	-4.5	/	-0.8%	-6.9%	/	-19%	13%
CN(CCc1ccccc1)C(=O)c1ccc(NC(=O)Cc2ccc(NC(=O)C3CCCN(C(=O)C4CC4)C3)cc2)cc1 (stereo unspecified)	-1.5	/	2.1%	1.8%	/	1%	/
C=CCNC(=O)c1ccccc1NC(=O)c1cccc2ccccc12	-1.9	-8%	-2.1%	2.2%	-0.1	-3%	10%
C#CCOCCOCCOCCNc1nc(N2CCN(C(=O)[C@H](CCCN=C(N)N)n3cc(C(N)[C@H](C)CC)nn3)CC2)nc(N2CCN(C(=O)[C@H](CCCN=C(N)N)n3cc(C(N)[C@@H](C)CC)nn3)CC2)n1 (stereo partly specified)	-2.9	/	0.7%	-0.4%	/	7%	/
Cc1cc(Cl)ccc1C(O)c1ncc(-c2cccc(F)c2)[nH]1 (stereo unspecified)	2.3	/	1.9%	-2.4%	/	/	/
COCCn1c(=O)c(-c2ccc(OC)cc2)nc2cnc(N3CCNCC3)nc21	/	11%	-0.6%	/	3.3	/	/
N[C@@H](Cc1ccc(O)cc1)C(=O)Nc1ccc2ccccc2c1	0.8	/	1.1%	-9.8%	/	5%	-9%
CC1(CCc2ccccc2)NC(=S)N(c2ccccc2)N1 (stereo unspecified)	-4.3	45µM*	3.9%	-0.8%	-1.1	17%	-9%
CCc1ccc(-c2ccc3nnc(SCC(N)=O)n3n2)cc1	4.7	12%	1.6%	-0.3%	-0.3	8%	-19%
COc1cccc(C2CC(c3ccc(Cl)cc3Cl)n3nc(N)nc3N2)c1 (stereo unspecified)	6.4	-2%	1.2%	0.1%	4.1	-1%	-57%
Cc1cccc(C)c1N1C(=O)CC(N2CCN(S(=O)(=O)c3ccccc3F)CC2)C1=O (stereo unspecified)	5.8	/	0.0%	1.3%	/	1%	-1%
Cc1nc(=S)n(-c2ccccc2)[nH]1	-1.3	?	5.1%	0.7%	0.3	-7%	-23%
CCCCCCCNC(=O)C1(CC2CC(c3ccc(Cl)cc3)=NO2)CCN(C(=O)c2cc(OCC)c(OCC)c(OCC)c2)CC1 (stereo unspecified)	-0.2	3%	0.3%	-5.6%	0.3	-8%	-31%[inhibitor]
O=c1[nH]c(/C=C/c2ccccc2)c([N+](=O)[O-])c(=O)[nH]1	-1.9	0%	4.7%	1.2%	1.2	-10%	-4%[15.4 µM]
O=C(C[C@@H]1C/C=C/CC[C@@H](Cc2ccc(F)cc2)C(=O)O[C@H](c2ccccc2)CNC1=O)NCCO	-2.8	/	0.6%	-1.4%	/	-9%	-42%[inhibitor]
CCC1(C)CC(c2nc(-c3ccc(OC)cc3)cs2)CCS1 (stereo unspecified)	-0.8	-8%	18%	1.5%	9.8	2%	-17%
COc1ccc(CCN2CC(C(=O)NCCc3cnn(C)c3)CCC2=O)cc1 (stereo unspecified)	4.3	-1%	0.0%	-2.5%	-1.9	-2%	0%
Cc1nc(-c2ccccc2O)n(S(=O)(=O)N(C)C)n1	-3.5	1%	-1.0%	0.7%	-1.6	24%	?
CC(C)(C)C1CCC(OC(=O)CCC(=O)Nc2ccccc2)CC1 (stereo unspecified)	-2.7	13%	?	-25%	5.5	-7%	-20%
CCC(C)[C@H](NC(=O)NC1CC1)C(=O)O (stereo partly specified)	-0.8	-5%	2.6%[38.3 µM]	-1.8%	-2.8	12%	-20%
COc1ccccc1C(CNC(=O)c1ccc(NS(=O)(=O)c2ccc(C(C)=O)cc2)cc1)N1CCCC1 (stereo unspecified)	-0.4	/	1.2%	1.1%	/	3%	-14%
COc1ccc(NC(=O)CSc2nccc(C)n2)cc1	-1.1	7%	0.0%	1.4%	-0.8	-1%	-16%
COc1ccc(-c2ccc(OC(=O)NC3CCS(=O)(=O)C3)cc2)cc1 (stereo unspecified)	-4.0	-1%	-0.4%	-2.1%	-1.2	7%	-1%
Cc1cccc(-c2nnc(SCC3CNC(=O)O3)n2-c2ccc(Cl)cc2)c1 (stereo unspecified)	-6.4	2%	-1.3%	-2.1%	6.7	-17%	20%
COc1ccc(C(C(C(=O)c2ccco2)N2CCOCC2)N2CCOCC2)cc1 (stereo unspecified)	-2.2	14%	0.3%	-2.1%	0.7	-9%	1%
CC(=O)c1cccc(NC(=O)CN(Cc2ccccc2)S(C)(=O)=O)c1	-3.2	4%	?	-5.4%	2.0	1%	-3%
CC(=O)Nc1ccc(S(=O)(=O)NCCC(=O)OC(C)C(=O)c2ccc(C)cc2)cc1 (stereo unspecified)	-8.0	6%	0.0%	1.9%	1.1	-13%	19%
COC(=O)c1sc(N)c(C(=O)OC)c1COC(=O)C1CC(=O)N(Cc2ccco2)C1 (stereo unspecified)	-2.3	-36%	-2.1%[38.3 µM]	-11%	5.0	-13%	?
O=C(c1cccc(F)c1)N1CCN(S(=O)(=O)Cc2ccccc2)CC1	-1.1	2%	-1.2%	-0.1%	1.0	1%	-7%
CC(C)CCN(C(=O)Cc1ccccc1F)c1c(N)n(Cc2ccccc2)c(=O)[nH]c1=O	-2.7	12%	0.5%	/	0.7	2%	2%
COc1ccccc1NC(=S)NC1CCCCCCCCCCC1	-4.4	32%[activator]	1.6%	-0.4%	3.8	-4%	2%
Cn1c(=O)cc(OCC(=O)NCCC2=CCCCC2)c2ccccc21	-2.4	9%	2.4%	/	1.8	?	-3%[15.4 µM]
